# Screens: PubChem BioAssay, several laboratories
# YopH PTP inh: YopH tyrosine phosphatase inhibitors, primary screen, biochemical, fluorescence Ex485/Em525; inhibition, %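 (about 10 µM by stock and volumes)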; 140,000 compounds, 0.16% hits;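 active = inhibition of 50% or more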;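 also: controls were vehicle for no effect and minimum signal wells for full effect; inactives centre near -20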
# Arbovirus anti: antivirals against arbovirus infection, primary screen, cell-based, full library, 10K replicate subset; arbovirus infection cell-based antiviral screen; inhibition, % at 10 µM; 200,000 compounds, 0.37% hits;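 active = inhibition from about 30%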;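 also: bluetongue infection of BSR cells; cell survival read as ATP light after 72 h; 0% = infected wells without compound and 100% = uninfected wells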
# Mtb growth: M. tuberculosis H37Rv growth inhibitors, H37Rv strain (AID 1626). M. tuberculosis H37Rv growth inhibition; higher % means a stronger effect. one-dose inhibition, % at 10 µM; IC50 in µM for titrated hits. 220,000 compounds, 0.95% hits;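 active = confirmed in a dose series; inconclusive = inhibition above 80% but not taken into the dose series; inactive = below 80% or under 30% at every dose of the series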;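 also: bacteria incubated seven days before Alamar blue readout; 0% = bacteria only wells and 100% = bacteria with antibiotic wells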
# RecA splice inh: Mtb RecA intein splicing inhibitors, primary screen, biochemical, fluorescence, HTS; 290,000 compounds, 0.75% hits; Protein RecA (Mycobacterium tuberculosis (strain ATCC 25618 / H37Rv)), P9WHJ3; inhibition, %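 (about 9 µM by stock and volumes)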; cell-free RecA intein splicing; in the data active = inhibition above about 30%; inconclusive = no clear call, values can overlap the other calls;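 also: 0% = vehicle wells and 100% = reference inhibitor control wells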
# Target sequence (P9WHJ3 whole entry, looked up, canonical isoform): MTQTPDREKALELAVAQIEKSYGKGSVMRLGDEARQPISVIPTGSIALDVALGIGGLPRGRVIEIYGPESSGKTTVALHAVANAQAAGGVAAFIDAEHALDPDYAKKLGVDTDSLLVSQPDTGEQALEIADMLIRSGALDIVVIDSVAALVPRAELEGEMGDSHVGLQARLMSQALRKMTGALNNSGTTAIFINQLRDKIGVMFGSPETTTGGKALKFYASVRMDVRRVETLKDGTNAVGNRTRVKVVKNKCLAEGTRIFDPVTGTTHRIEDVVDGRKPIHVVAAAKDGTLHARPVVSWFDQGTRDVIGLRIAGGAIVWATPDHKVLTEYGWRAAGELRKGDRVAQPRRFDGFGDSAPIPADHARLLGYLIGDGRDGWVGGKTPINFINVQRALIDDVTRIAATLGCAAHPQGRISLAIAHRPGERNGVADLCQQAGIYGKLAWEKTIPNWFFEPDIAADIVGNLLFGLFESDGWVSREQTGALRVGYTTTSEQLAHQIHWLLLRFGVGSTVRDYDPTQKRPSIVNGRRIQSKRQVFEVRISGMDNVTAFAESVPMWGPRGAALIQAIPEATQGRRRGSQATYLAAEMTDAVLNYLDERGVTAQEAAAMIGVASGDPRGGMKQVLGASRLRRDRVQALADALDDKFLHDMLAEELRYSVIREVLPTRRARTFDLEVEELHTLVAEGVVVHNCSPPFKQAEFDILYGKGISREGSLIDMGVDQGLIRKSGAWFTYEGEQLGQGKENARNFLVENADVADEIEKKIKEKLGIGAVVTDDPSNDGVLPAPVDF
# Mtb betalactam: beta-lactam sensitization of Mtb H37Rv, H37Rv; 330,000 compounds, 0.27% hits; M. tuberculosis H37Rv growth with meropenem, percent inhibition; hits of this screen are not shown here; inhibition, % at 25 µM;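 active = about 74% or more and at least 40 points above the plate without the antibiotic, then above 30% in a dose series; inconclusive = first-round hits that could not be retested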;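 also: growth measured after seven days incubation then overnight dye step; 0% = bacteria only wells and 100% = bacteria with antibiotic; twin plates without the antibiotic show which effects depend on it; some results filed as inactive read as strong as hits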
# Arbovirus anti repeat: further read-out of Arbovirus anti, marked with its call; inhibition, %; measured here: 10K subset replicate screen; many hits read low in the repeat;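 first of two repeat runs on a subset; 0% = infected and 100% = uninfected wells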
# * = called active by the depositor; ? = inconclusive; nt = not tested or not shown. Some of the compounds tested, so the mix of outcomes need not match the whole.
# A first look:
SMILES,YopH PTP inh,Arbovirus anti,Mtb growth,RecA splice inh,Mtb betalactam,others
Cc1nn(C2CCS(=O)(=O)C2)c(Cl)c1/C=C/C(=O)OCC(=O)Nc1ccccc1OC(F)F (configuration not stated),-17,1,5%,-4.2,1,
Cc1ccc(C)c(NS(=O)(=O)c2ccc(OCC(=O)N3CCOCC3)cc2)c1,-21,-4,1%,-3.3,-15,
Cc1ccc(C(=O)O)cc1NC(=O)C1=CSCCO1,nt,nt,nt,2.0,-8,
CC(C)CN(CC(C)C)C(=O)CC(=O)NC(=O)c1ccc(Cl)cc1,-24,9,6%,-3.3,-6,
Cc1ccc(C(=O)NCc2ccco2)cc1S(=O)(=O)Nc1cccc(C)c1C,-15,-1,5%,2.2,1,
CCOc1ccccc1N(C(=O)c1ccco1)C(C(=O)NC1CCCC1)c1cccs1 (configuration not stated),nt,nt,nt,6.3,-2,

# All compounds of this part, repeating the preview:
SMILES,YopH PTP inh,Arbovirus anti,Mtb growth,RecA splice inh,Mtb betalactam,others
Cc1nn(C2CCS(=O)(=O)C2)c(Cl)c1/C=C/C(=O)OCC(=O)Nc1ccccc1OC(F)F (configuration not stated),-17,1,5%,-4.2,1,
Cc1ccc(C)c(NS(=O)(=O)c2ccc(OCC(=O)N3CCOCC3)cc2)c1,-21,-4,1%,-3.3,-15,
Cc1ccc(C(=O)O)cc1NC(=O)C1=CSCCO1,nt,nt,nt,2.0,-8,
CC(C)CN(CC(C)C)C(=O)CC(=O)NC(=O)c1ccc(Cl)cc1,-24,9,6%,-3.3,-6,
Cc1ccc(C(=O)NCc2ccco2)cc1S(=O)(=O)Nc1cccc(C)c1C,-15,-1,5%,2.2,1,
CCOc1ccccc1N(C(=O)c1ccco1)C(C(=O)NC1CCCC1)c1cccs1 (configuration not stated),nt,nt,nt,6.3,-2,
COc1cccc(C(=O)N2CCC(C(=O)NCc3ccc(C)cc3)CC2)c1,nt,nt,nt,2.2,2,
CCn1c(-c2cc(-c3ccccc3OC)nc3ccccc23)n[nH]c1=S,-26,-1,-4%,14,-6,
Cc1cc(-c2csc(N)n2)c(C)n1CCc1ccccc1,-28,1,2%,3.5,6,
CCN(CCNCC(O)COCc1ccc(Cl)cc1)c1cccc(C)c1 (configuration not stated),nt,-33,40%,1.8,61,
O=[N+]([O-])c1nn(-c2cccc(Cl)c2)n(O)c1=NCc1cccnc1,-14,-1,6%,-4.0,?,
Cc1ccc(-n2nnnc2C(Cl)(Cl)c2nnnn2-c2ccc(C)cc2)cc1,-8,-26,53%,-1.5,92,
CCCC(=O)Nc1ccc2c(c1)nc1n2CCSC1,-36,0,-9%,0.0,-5,
CCOC(=O)N1CCC(N(CCN(C)C)C(=S)Nc2cccc(OC)c2)CC1,nt,1,10%,0.2,-7,
Cc1c(C(=O)N2CCOCC2)cc(C(C)(C)C)n1-c1ccccc1,nt,nt,-9%,3.7,2,
O=C(NCCCN1CCOCC1)C(=O)NCCc1ccccc1,nt,0,2%,0.1,-6,
CCOP(=O)(OCC)C(NC(C)=O)C(Cl)(Cl)Cl (configuration not stated),1,6,-1%,-0.6,1,
COc1ccc(C2CC(c3ccc(Cl)cc3Cl)n3nc(N)nc3N2)cc1 (configuration not stated),1,4,-3%,2.4,3,Arbovirus anti repeat=2
CC(C)c1ccc(C(=O)NNC(=O)c2ccncc2)cc1,nt,nt,nt,2.6,-1,
CCOC(=O)C1=C(c2ccccc2)O/C(=C(/C(=O)OC)C(F)(F)F)S1,-15,-7,9%,5.0,-4,
CCOC(=O)N1CCN(Cc2ccc3c(c2)OCO3)CC1,nt,nt,nt,-0.4,-8,
Cc1sc(NC(=O)c2ccco2)c(CN2CCC(C)CC2)c1C,4,3,9%,-2.2,-9,
COc1ccc(/C=N/NC(=O)CN(c2ccc(OC)cc2)S(=O)(=O)c2ccccc2)cc1,nt,3,0%,-3.1,-6,
Cc1ccc(NS(=O)(=O)c2csc(C(N)=O)c2)c(C)c1,nt,nt,nt,2.5,13,
Cc1cc(C)c(NC(=O)CCN2C(=O)c3ccccc3S2(=O)=O)c(C)c1,nt,nt,nt,1.7,-5,
CC(C)NC(=O)C1CCN(C(=O)c2ccc(-c3ccccc3)cc2)CC1,-10,3,-4%,0.5,1,
CC(C)c1nc2ccc(C(=O)O)cc2[nH]1,-25,1,-8%,-0.7,0,
O=C(NCCCN=C1NS(=O)(=O)c2ccccc21)c1ccc(S(=O)(=O)N2CCOCC2)cc1,5,14,-7%,-1.7,-4,
C=CCn1c(Cc2ccc(OCC)cc2)nnc1SCC(N)=O,-9,2,2%,-0.9,-4,
O=C(Nc1ccccc1N1CCCC1)C1CCN(C(=O)c2ccc(Cl)cc2)CC1,nt,nt,nt,-2.6,-3,
Cc1nn(-c2ccccc2)c(C)c1NC(=O)COC(=O)CCCOc1ccccc1,nt,nt,nt,-0.8,-3,
Cc1cccc(OCc2nnc(SCC(=O)NC3CCCCC3)n2C)c1,nt,nt,nt,1.2,5,
Cc1ccc(C(=O)NCCc2ccccn2)cc1S(=O)(=O)N1CCOCC1,nt,nt,-4%,2.8,0,
CCOc1ccc(NC(=O)CCC(=O)NNC(=O)c2ccc(Br)o2)cc1,nt,nt,nt,0.9,90,
Cc1ccc(S(=O)(=O)N2CCN(C(=O)c3c(C)nn(-c4ccccc4)c3Cl)CC2)cc1,3,5,4%,0.0,-5,
CC(C(=O)O)n1c(C(F)(F)F)nc2ccccc21 (configuration not stated),-15,1,5%,0.4,-1,
CCOC(=O)c1cccc(NC(=O)c2c(NCc3ccccc3)[nH]c(=O)[nH]c2=O)c1,nt,nt,14%,1.1,55,
COc1ccc(-c2cnc3ncnn3c2N)cc1,nt,8,-1%,-1.9,2,
CN(C)c1ccc(C=C2C(=O)OC(C)(C)OC2=O)cc1,nt,4,-1%,-1.1,6,
COc1cc(Nc2cc(C)nc3nc(C)nn23)cc(OC)c1OC,-20,-1,-8%,2.0,-6,Arbovirus anti repeat=-2
COc1ccc(C(=O)/C=C/C(=O)N(CC(=O)NC2CCCCC2)Cc2ccccc2)c(O)c1,nt,-40,-3%,8.5,nt,
CCCc1nc2ccccc2c2nc(N)nn12,-11,2,0%,-0.8,-7,
CCCOC(=O)c1ccc(NC(=O)Oc2ccccc2)cc1,-13,-7,4.5µM*,3.3,-2,
COc1ccc(C2CC(c3ccccc3)=NN2C(=O)COC(=O)c2nc3nccc(C)n3n2)cc1 (configuration not stated),nt,0,3%,5.0,-1,
Cc1ccc(C(=O)NCCc2sc(C)nc2C)cc1,-24,-3,-6%,-0.4,-4,
CCOC(=O)CNC(=O)CN1CCC(c2nc3ccccc3[nH]2)CC1,nt,nt,nt,2.2,1,
COc1cccc(CN2C(=O)C(C)N(C(=O)c3ccccc3)c3ccccc32)c1 (configuration not stated),nt,nt,nt,6.7,-2,
O=C(c1ccccc1F)N1CCN(c2ccc([N+](=O)[O-])c3cccnc23)CC1,nt,1,-2%,3.4,2,
O=C(NCc1cccnc1)/C(=C/c1ccc(-c2cccc(C(F)(F)F)c2)o1)NC(=O)c1ccccc1,-38,-25,nt,1.8,20,
COc1ccc(-c2ccc3oc(-c4ccc(OC)cc4)c(C#CC4(O)CCCCC4)c3c2)cc1,nt,nt,18%,1.8,73,
CCOC(=O)COn1c(=O)c(-c2ccc(OCC)cc2)[n+]([O-])c2ccccc21,nt,nt,nt,1.3,-4,
CCCCc1c(O)cc(C)[nH]c1=O,nt,nt,1%,-2.8,-4,
CCSc1nc(-c2cccnc2)ccc1C#N,-32,8,0%,-0.4,56,
CCOC(=O)c1ccc(CNC(=O)C2CCC(=O)N(Cc3cccc(OC)c3)C2)o1 (configuration not stated),nt,nt,nt,-1.1,-7,
CC(=O)Nc1ccc(C(=O)N/N=C/c2cccnc2)cc1,-21,-4,-4%,-0.8,-5,
Cn1c(SCC(=O)c2ccc3c(c2)OCO3)nnc1-c1ccccn1,-11,-2,-4%,-0.9,-8,
CC(C)n1nnnc1SCC(=O)Nc1ccccc1N1CCOCC1,nt,0,-6%,0.0,-2,
CCOc1nnc(C)c2c(C)n(-c3cccc(Cl)c3)nc12,-19,13,19%,-0.9,-1,
COC(=O)C1CSC(C(=O)OC)N1C(=O)Nc1ccc(Cl)c(Cl)c1 (configuration not stated),-23,3,-1%,2.3,-10,
Cc1ccc2c(c1)NC(=O)C(CC(=O)NCCN(C)C)O2 (configuration not stated),-17,6,-8%,-1.2,-4,
# Carrying on:
SMILES,YopH PTP inh,Arbovirus anti,Mtb growth,RecA splice inh,Mtb betalactam,others
CCOC(=O)c1oc2ccc(S(=O)(=O)n3nc(-c4cc(OC)c(OC)c(OC)c4)cc3N)cc2c1C,nt,-4,-7%,3.9,4,
CC(C)(C)c1ccc(S(=O)(=O)N2CCCCC2C(=O)NCc2ccccn2)cc1 (configuration not stated),nt,-4,9%,3.1,-1,Arbovirus anti repeat=4
COc1cc(/C=N\NC(=O)CN2CCOCC2)ccc1OCC(=O)Nc1ccc(C)c(C)c1,-16,7,3%,1.2,13,
COc1ccc(/C=N/Nc2nc(-c3ccc(Cl)cc3)cc(C(F)(F)F)n2)c(OC)c1,-29,-6,6%,-1.7,7,
Nc1cc(C(F)(F)F)ccc1C(=O)O,-37,2,0%,-7.5,-5,Arbovirus anti repeat=6
O=C(CN(C(=O)c1nsc(Cl)c1Cl)c1cccc(F)c1)NC1CCCC1,nt,nt,nt,0.9,-3,
CC(C)(C)c1ccc(-c2ncccc2O)cc1,nt,9,1%,-1.5,-1,
O=C(COC(=O)c1ccc([N+](=O)[O-])cc1)NC1CCCC1,nt,nt,nt,1.2,10,
CCCC(=O)Nn1cnc2c(c1=O)C1(CCCCC1)Cc1ccccc1-2,-26,-1,8%,-5.9,12,
FC(F)(F)c1cccc(NC(=S)NCc2ccccn2)c1,-33,16,-3%,2.0,-7,
CCc1ccc(NC(=O)CN(c2ccc3c(c2)OCO3)S(=O)(=O)c2c(C)noc2C)cc1,-27,-6,-6%,nt,-4,Arbovirus anti repeat=-6
CCC1=C2CC[C@H]3C(=O)N(CC(=O)OC)C(=O)[C@H]3[C@H]2[C@@]2(C)C(=NCC(=O)OC)OC(=O)N2C1=O,nt,nt,-14%,-0.1,-7,
O=C(CCSc1ccc(Cl)cc1)N1CCCCCC1,-25,-3,7%,3.5,-2,
CSCc1cc(N(C)c2ccccc2)nc(-c2ccccn2)n1,nt,nt,nt,8.2,87,
S=C(c1ccc(Br)cc1)N1CCN(Cc2ccccc2)CC1,7,14,-1%,5.3,-5,
O=[N+]([O-])[N-][n+]1cnn(Cc2ccc(Cl)cc2)c1,nt,-6,5%,0.0,1,
Cn1cccc1/C=N/N1CCN(c2ccccn2)CC1,-35,-8,2%,-5.2,5,
COc1ccc(C)cc1S(=O)(=O)N(C)CC(=O)N1CCN(C)CC1,0,15,-7%,-0.6,-3,
Cc1ccc(Nc2nc(-c3sc(NC(=O)c4ccc([N+](=O)[O-])cc4)nc3C)cs2)cc1,19,-8,13%,8.3,97,
FC(F)(F)COc1nc(N/N=C/c2cccnc2)nc(N2CCCCC2c2ccccn2)n1 (configuration not stated),nt,-6,2%,1.4,-2,
COc1ccc2c(c1)[nH]c1c(Cl)ncnc12,-35,8,-6%,-0.5,32,
CCC1CCCCN1C(=S)Nc1cccc(S(=O)(=O)N(C)C)c1 (configuration not stated),nt,2,3%,-1.4,-10,
O=C(/C=C/c1ccco1)Nc1ccc2nn(-c3ccccc3)nc2c1,-30,5,14%,2.3,-4,
CN(C)S(=O)(=O)c1cc(NC(=O)CN2CCCc3ccccc32)ccc1Cl,nt,11,-11%,8.7,-9,
O=C(O)CNC(=S)N(Cc1ccccc1Cl)C1CCCCC1,nt,1,4%,-5.5,0,
Cn1c(=O)cc(OCC(=O)N2CCN(Cc3ccc4c(c3)OCO4)CC2)c2ccccc21,1,1,-5%,-0.5,-2,
OC(COc1ccccc1)CN1CCC(Cc2ccccc2)CC1 (configuration not stated),nt,nt,nt,1.3,-1,
CCN(C(=O)c1cc2c(=O)[nH]c3ccc(C)cc3c2s1)c1ccc(F)cc1,nt,nt,4%,2.6,-4,
O=C(NC(=O)c1ccccc1O)c1ccc(C(F)(F)F)cc1,nt,nt,42%,-3.8,32,
CCOc1ccc2nc(NCCCNS(=O)(=O)c3ccc(F)cc3)c(C#N)cc2c1,-5,5,-5%,-33,3,
O=C(NC(Cc1ccccc1)C(=O)O)/C(=C\c1ccccc1)NC(=O)c1ccco1 (configuration not stated),nt,nt,nt,0.4,-13,
Cc1ccsc1C(=O)Nc1ccc(C(=O)O)cc1,14,-3,-2%,nt,-9,
